Vif TR-FRET = inhibitors of Vif binding to APOBEC3G peptide, primary screen, biochemical, TR-FRET, GST-Vif 1-94, biotin-A3G peptide, dose response retest (AID 1117319); inhibition, %; hits with a dose series show IC50 in µM; actives 0.57% (n = 260,000); TR-FRET GST-Vif / biotin-A3G peptide binding; higher % means a stronger effect; test concentration not given here; strong numbers were not always called active;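 active = above the screen mean plus three standard deviations and confirmed in dose response; inconclusive = results disagree or hit not tested in dose response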;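 note: Vif residues 1-94 fused to GST binding biotinylated APOBEC3G peptide 110-148; 0% = full assay without inhibitor and 100% = GST in place of GST-Vif; retest series ran down from 100 µM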
RanGTP-Imp inh = disruptors of Ran-importin-beta complex formation – biochemical, FRET, CFP-Ran, YFP-importin-beta, homogeneous, primary screen; cell-free CFP-Ran/YFP-importin-beta FRET ratio; inhibition, % (no concentration beside the values); actives 1.1% (n = 300,000);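 active = most replicates above 15%; inconclusive = exactly half above 15%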;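 note: 0% = DMSO wells and 100% = Ran loaded with GDP instead of GTP; wells of about 40 µL received 100 nL stock; the first replicate is given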
ALR inh = blocks human ALR sulfhydryl oxidase activity | purified ALR, DTT oxidation, H2O2 HRP-luminol luminescence | inhibition, % (test concentration not listed) | actives 3.8% (n = 290,000) | AID 485317;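 active = mean and each replicate at 75% or more; inconclusive = only one of the two met; inactive = neither met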;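 note: stock transfer was 7.5 nL into about 7.5 µL; 0% = neutral wells and 100% = wells with inactivated enzyme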
Target sequence (P55789 whole entry, looked up): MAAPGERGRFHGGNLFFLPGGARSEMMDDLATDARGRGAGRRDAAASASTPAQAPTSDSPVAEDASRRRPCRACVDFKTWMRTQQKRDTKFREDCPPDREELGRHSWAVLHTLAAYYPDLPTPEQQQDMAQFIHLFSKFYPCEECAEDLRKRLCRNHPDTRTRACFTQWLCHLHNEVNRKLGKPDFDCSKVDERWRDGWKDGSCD
B2AR ag = agonists of human beta-2 adrenergic receptor inducing internalization. P07550. Am2.2-beta2AR cells, FAP receptor internalization, flow cytometry; reference of the scale not given here. response, % (test concentration not listed). actives 0.43% (n = 340,000);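 active = response above a set limit, near 3 SD of response in nonfluorescent compounds, cut at about 42% in these data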;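 note: stock transfer was 100 nL into about 11 µL; a reference agonist was the positive control; negative values mostly stem from fluorescent compounds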
Target sequence (P07550 whole entry, looked up): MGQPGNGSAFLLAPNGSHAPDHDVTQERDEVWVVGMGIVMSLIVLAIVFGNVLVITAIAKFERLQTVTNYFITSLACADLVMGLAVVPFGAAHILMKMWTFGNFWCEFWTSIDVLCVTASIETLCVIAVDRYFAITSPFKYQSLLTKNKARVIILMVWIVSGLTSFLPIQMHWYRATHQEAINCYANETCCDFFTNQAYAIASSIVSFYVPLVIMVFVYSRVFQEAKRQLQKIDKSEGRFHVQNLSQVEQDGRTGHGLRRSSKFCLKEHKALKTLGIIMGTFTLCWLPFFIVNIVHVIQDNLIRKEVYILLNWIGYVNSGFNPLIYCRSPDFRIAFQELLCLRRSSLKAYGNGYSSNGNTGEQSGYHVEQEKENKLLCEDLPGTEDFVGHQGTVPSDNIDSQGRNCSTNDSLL
Calb FLC = C. albicans growth modulation with fluconazole; growth inhibition, % (test concentration not listed); AID 1979; C. albicans CaCi-2 (fluconazole-resistant clinical isolate) + fluconazole, Alamar Blue growth, 48 h; actives 0.57% (n = 300,000);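 active = most replicates above 75%; inconclusive = exactly half above 75%; inactive = most below 75%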;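 note: all wells also contain fluconazole at 8 µg/ml as a sub-toxic cotreatment; 0% = median of DMSO wells and 100% = median of geldanamycin control wells; wells of about 8 µL received 7.5 nL stock; the first replicate is given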
LANA-H2A inh = blocks KSHV LANA binding to histone H2A/H2B; cell-free LANA-H2A/H2B peptide, fluorescence polarization; actives 0.6% (n = 320,000); AID 2629; inhibition, % (test concentration not listed); in the data active = inhibition mostly above about 10%, no sharp cut-off; inactive = mostly below about 6.7%;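 note: stock transfer was 7.5 nL into about 10 µL; 0% = median of vehicle wells and 100% = median of positive control wells; one replicate is shown; the record names a cut of 25% in any replicate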
HNF4A DNA FP = change in binding of human HNF4 alpha to DNA. P41235. HNF4a-FITC DNA binding, fluorescence polarization, 1 h. activity change, % at 10 µM. actives 0.3% (n = 360,000). AID 1224865; in the data active = activity change above about 30%, passing the limit was not always enough;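 note: controls were the assay level and a saturating level of protein; the project sought stronger binding though the title names inhibitors; some compounds called inactive have numbers as strong as hits; positive values seem to mean higher polarization but the record does not say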
Target sequence (P41235 whole entry, looked up): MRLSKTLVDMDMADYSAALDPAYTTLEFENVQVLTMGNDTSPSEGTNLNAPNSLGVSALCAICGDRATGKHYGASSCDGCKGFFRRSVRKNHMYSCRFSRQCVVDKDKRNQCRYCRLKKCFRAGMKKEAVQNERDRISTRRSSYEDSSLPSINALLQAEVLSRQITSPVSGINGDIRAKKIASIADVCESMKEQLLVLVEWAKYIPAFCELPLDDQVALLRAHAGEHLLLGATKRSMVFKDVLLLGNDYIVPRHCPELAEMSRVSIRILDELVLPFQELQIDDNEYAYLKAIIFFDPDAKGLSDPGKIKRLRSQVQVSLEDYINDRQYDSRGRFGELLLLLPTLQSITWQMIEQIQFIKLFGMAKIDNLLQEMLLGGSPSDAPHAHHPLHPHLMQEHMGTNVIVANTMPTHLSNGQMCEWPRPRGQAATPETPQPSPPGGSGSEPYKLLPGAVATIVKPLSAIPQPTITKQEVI
Starred values were filed as active, the others as inactive; ? = inconclusive; / = no result given; & = joins results of further samples.

SMILES	Vif TR-FRET	RanGTP-Imp inh	ALR inh	B2AR ag	Calb FLC	LANA-H2A inh	HNF4A DNA FP
Cc1nc2scc(C)n2c(=O)c1S(=O)(=O)Nc1ccc(N2CCN(S(C)(=O)=O)CC2)cc1	/	-1.3	/	6	?	3.9	-5.6
O=C(Nc1ccnc(-c2ccncc2)n1)c1ccc(F)cc1	2%	-1.2	2	2	-12	-0.7	-3.1
CSc1ncc(CN2CCC(C(=O)Nc3cccc(-c4cscn4)c3)CC2)cn1	-8%	0.6	-11	-3	10	2.3	5.7
CCOC(=O)C1=C(O)/C(=C/c2cn(CC(=O)N3CCCC3)c3ccccc23)SC1=Nc1ccccc1	20%	-0.1	/	11	0	/	2.8
CC(=O)c1cccc(S(=O)(=O)NCCC(=O)O)c1	7%	-1.1	-15	6	-15	-1.4	-1.8
Cc1cc(C)cc(OCc2ccc(C(=O)NN)o2)c1	-1%	-0.1	8	-3	4	-4.3	-1.6
Cc1ccnc2nc(C(=O)OCC(=O)NC(=O)NCc3ccco3)nn12	4%	-2.4	-7	-4	-25	0.2	-3.4
Cc1ccc(N2CC(C(=O)NC3CCC(C)CC3)CC2=O)cc1 (stereo not given)	3%	0.3	3	-6	5	1.4	5.8
COc1ccc2nc(NC(=O)CSCC(=O)Nc3cc(C)on3)sc2c1	-1%	-2.2	-67	9	5	5.5	2.0
COc1ccc(C(=O)O)cc1S(=O)(=O)N(C)CCc1cccnc1	4%	-1.5	2	-2	-10	0.5	-1.9
NC(=S)NNc1ccc(Cl)c(Cl)c1	?	3.0	/	0	16	-1.6	-1.4
COc1ccc(Cc2nnc(NC(=O)c3ccco3)s2)cc1OC	-2%	-1.0	-2	-3	4	-2.7	-4.0
CCCCOC(=O)CSC(=S)N(C)Cc1cccs1	25%	6.8	-4	6	0	0.6	-2.8
COc1ccc(/[N+]([O-])=C/c2ccco2)cc1	/	/	-1	-6	/	-1.4	-5.2
COc1ccccc1/C=C/C(=O)Nc1cccnc1	10%	-1.5	-1	0	1	-0.9	-1.7

Next part (four carried over from the part before).
SMILES	Vif TR-FRET	RanGTP-Imp inh	ALR inh	B2AR ag	Calb FLC	LANA-H2A inh	HNF4A DNA FP
COc1ccc(Cc2nnc(NC(=O)c3ccco3)s2)cc1OC	-2%	-1.0	-2	-3	4	-2.7	-4.0
CCCCOC(=O)CSC(=S)N(C)Cc1cccs1	25%	6.8	-4	6	0	0.6	-2.8
COc1ccc(/[N+]([O-])=C/c2ccco2)cc1	/	/	-1	-6	/	-1.4	-5.2
COc1ccccc1/C=C/C(=O)Nc1cccnc1	10%	-1.5	-1	0	1	-0.9	-1.7
CCC(=O)Nc1ccc(NC(=O)c2oc3ccccc3c2C)cc1	-6%	-6.9	31	-6	-21	5.5	1.8
CCC1Sc2ccc(S(=O)(=O)CCC(=O)Nc3cc(C)ccn3)cc2NC1=O (stereo not given)	/	-1.3	-4	2	12	2.6	-0.3
O=C(Nc1ccc(F)cc1)c1cccc(N2C(=O)c3ccccc3C2=O)c1	/	-0.5	1	-10	-2	5.2	2.7
O=[N+]([O-])c1ccc(N2CCN(S(=O)(=O)c3ccc4ccccc4c3)CC2)cc1NCc1ccco1	0%&2%	1.6	2	1	4	-5.0	-0.9
Cc1ccccc1NC(=O)NCCCCc1ccccc1	/	-2.1	-6	-3	10	-4.6	6.5
C=CCNC(=S)/C(=C(/[O-])c1ccc([N+](=O)[O-])cc1)[n+]1ccccc1	?	-0.2	56	6	-22	-0.2	1.8
COc1ccccc1NC(=O)COC(=O)C1CC2CCCC(C1)C2=O (stereo not given)	-9%	/	-5	-4	/	2.7	4.4
Cc1nc(NCCN)c(C#N)c2c1COC(C)(C)C2	28%	2.4	-36	1	1	2.5	-3.4
CCN1CCCC1CNC(=O)CSc1cc(=O)n(C)c2cc(Cl)ccc12 (stereo not given)	0%	-4.3	-4	-3	-8	3.4	0.1
O=C(N[C@@H](Cc1ccccc1)C(=O)OCc1ccccc1)c1nc[nH]c1C(=O)N[C@@H](Cc1ccccc1)C(=O)OCc1ccccc1	/	-7.4	-8	13	-13	-3.2	1.5
OCCOCCn1c(C(CO)Nc2nc(-c3ccccc3Br)cs2)nc2ccccc21 (stereo not given)	/	-0.1	16	1	-2	-1.2	2.3
O=C(O)CCCCCN1C(=O)C(O)=C(C(=O)/C=C/c2ccccc2)C1c1ccc2c(c1)OCO2 (stereo not given)	/	1.1	1	-2	0	-0.1	-2.5
Cc1cc(C(=O)OCC(=O)c2cccs2)ccc1[N+](=O)[O-]	-3%	/	/	3	/	/	-0.9
CC(=O)c1ccc(Nc2nc(NCCO)nc(OC(C(F)(F)F)C(F)(F)F)n2)cc1	/	6.3	0	-6	1	3.9	-1.4
Cc1nc(C)c(C(=O)OCC(=O)NCc2ccccc2)s1	/	/	23	6	/	1.0	-0.5

Taken from the listing for reference:
SMILES	Vif TR-FRET	RanGTP-Imp inh	ALR inh	B2AR ag	Calb FLC	LANA-H2A inh	HNF4A DNA FP
CCC(=O)Nc1ccc(NC(=O)c2oc3ccccc3c2C)cc1	-6%	-6.9	31	-6	-21	5.5	1.8
CCC1Sc2ccc(S(=O)(=O)CCC(=O)Nc3cc(C)ccn3)cc2NC1=O (stereo not given)	/	-1.3	-4	2	12	2.6	-0.3

(continued)
SMILES	Vif TR-FRET	RanGTP-Imp inh	ALR inh	B2AR ag	Calb FLC	LANA-H2A inh	HNF4A DNA FP
COc1ccc(-c2noc(CCC(=O)NCc3cc(Br)ccc3OC)n2)cc1	6%	2.1	/	-12	-3	-1.6	2.5
CCC(C)NC(=O)C1CCN(CCCc2ccccc2)CC1 (stereo not given)	7%	2.1	0	1	-3	1.8	-0.5
CCN(CC)CCCNC(=O)C1CCC(CNS(=O)(=O)c2ccc(Cl)cc2)CC1 (stereo not given)	-4%	1.6	-9	2	-8	-1.5	2.1
CC1(C)C(=O)OC(c2cccc([N+](=O)[O-])c2)C2(CCCCC2)C1=O (stereo not given)	0%	4.5	3	1	-1	-0.3	1.4
CC1CC(=O)c2cnc(N3CCOCC3)nc2C1 (stereo not given)	1%	-0.4	-1	7	-3	-3.8	-3.6
COc1ccc(C(=O)N2CC(=O)N(CCc3ccccc3)C(=O)C2)cc1OC	7%	-0.8	6	-8	-6	5.0	-2.0
O=C(N/N=C\C=C\c1ccc([N+](=O)[O-])o1)c1cccs1	/	-5.7	-22	-7	91*	1.4	-11
CC(=O)Nc1c2c(nn1-c1ccc(Cl)cc1)CSC2	/	4.0	0	-1	16	-1.5	2.4
COc1cccc(C2NC(=O)NC(O)(C(F)(F)F)C2C(=O)c2cccnc2)c1OC (stereo not given)	47µM*	3.3	-8	-2	3	1.2	-0.8
COc1ccc(OC(C)C(=O)NCc2cccnc2)cc1 (stereo not given)	2%	-0.3	-1	0	-3	-1.7	1.0
COC(=O)c1nc(-c2ccccc2)n[nH]1	7%	0.3	3	-5	?	-8.0	-1.9
Cn1nc([N+](=O)[O-])nc1Oc1ccccc1F	-13%	1.9	/	1	5	-1.9	-2.0
O=C(O)c1cc(O)ccc1N=Nc1ccccc1	4%	-2.6	3	-7	-3	-1.9	1.6
COc1cc(C2NC(=O)NC(C)=C2C(=O)OCc2ccccc2)ccc1O (stereo not given)	0%	2.3	34	3	-1	-1.4	-0.6
CCCCn1nc(NC(=O)COC)c2cc3ccc(C)cc3nc21	9%	4.7	/	11	14	-2.0	1.5
O=C(NC1CCCCC1)C(c1ccccc1)N1CCCC1 (stereo not given)	0%	1.6	2	1	-4	-1.0	0.3
Cc1cc(C)cc(NC(=O)CN2CCC(NC(=O)c3ccccc3F)CC2)c1	21%	-2.1	-10	1	2	-3.6	0.5
Cc1ccccc1Nc1nc2nonc2nc1N1CCOCC1	1%	6.4	-31	-4	4	2.4	5.6
CC(=O)Nc1c(C(=O)Nc2ccc3c(c2)OCO3)oc2ccccc12	/	1.2	0	-5	1	-1.0	2.5
COc1cccc(C(=O)N[C@@H](CCSC)c2nc3ccccc3[nH]2)c1	6%	4.4	5	-7	-6	-5.3	-1.7
O=C(Nn1nnnc1Nc1ccccc1)C12CC3CC(CC(C3)C1)C2	-3%	-0.2	0	-6	2	-2.5	3.3
COc1ccc(Br)cc1CSC(=N)N	/	3.8	99*	1	-10	-0.6	-0.3
Cc1cc(C)cc(NC(=O)C2CCN(S(=O)(=O)c3c(C)n[nH]c3C)CC2)c1	1%	2.2	-5	1	-4	-0.9	1.9
Cc1noc(C)c1S(=O)(=O)N1CCC(C(=O)N2CCC(C)CC2)CC1	22%	0.8	-2	-2	0	4.2	2.8
Cc1cc(C)c(OCCN2CCOCC2)c(Cl)c1	/	-5.9	-4	-3	-14	1.3	-0.3
CCOC(=O)[C@@H]1[C@H]2COc3ccccc3[C@H]2N2C(=O)N(c3ccc(F)cc3)C(=O)[C@]12C	/	-2.2	/	3	15	-3.3	-0.1
Cc1cccc(C)c1NC(=O)Cn1c(=O)n(CCCC(=O)NC2CCN(Cc3ccccc3)CC2)c(=O)c2ccccc21	4%	-2.5	-12	2	-3	-1.5	-2.9
COc1ccc(CSCC(=O)N/N=C/c2ccc(OCC(=O)NCc3ccco3)cc2)cc1	13%	3.3	-4	4	9	-2.0	1.9
O=c1ccc(S(=O)(=O)N2CCCC2)cn1Cc1ccc(F)cc1	-5%	/	0	3	/	8.5	-1.7
COc1ccc(NC(=O)C2CCCN(C)C2)cc1OCC(C)C (stereo not given)	5%	-1.5	/	-2	24	-5.6	6.3
Clc1ncc(CN2CCN(Cc3ccccc3)CC2)s1	1%	?	2	-4	3	2.3	-1.8
Cc1ccc(CNS(=O)(=O)c2ccc3oc(C(=O)O)c(C)c3c2)cc1	-6%	-3.8	-8	-2	-6	1.6	1.7
CCOC(=O)c1ccc(Nc2nc(C)nc3c2nnn3Cc2ccccc2)cc1	/	-1.9	-1	4	7	-2.5	1.4
Cc1ccccc1C(=O)Nc1nnc(-c2ccc(C(C)(C)C)cc2)s1	7%	1.5	0	0	-2	-1.7	-0.3
CN=C1S/C(=C\c2cccc(Cl)c2Cl)C(=O)N1C	/	6.9	/	-13	9	-2.9	/
CCN(CC)C(=O)COc1ccc(S(=O)(=O)N2CCOCC2)cc1	0%	4.7	-4	12	-5	-0.6	6.8
CCOc1cc(CNCc2cccnc2)ccc1OCC(=O)NC(C)(C)C	5%	-0.6	-5	0	-10	-0.1	3.2
Cn1c(C(=O)N2CCN(c3ccc(Cl)cc3)CC2)cc2c(=O)[nH]c3ccccc3c21	9%	8.6	-5	0	8	-5.4	2.5
O=C(COc1ccc2c(c1)CCC2)NCc1ccccc1	7%	3.9	-7	-10	?	1.8	-1.2
CC(=O)c1ccc(NC2OC(C)C(O)C(O)C2O)cc1 (stereo not given)	8%	-2.1	/	3	23	0.4	2.5
Cc1csc(NC(=O)CSc2nc(C)cs2)n1	2%	3.6	-68	-8	-5	0.9	2.8
O=S(c1ccsc1)c1ccsc1	2%	4.2	1	-1	9	-3.1	-0.5
CC1CC1C(=O)N1CCN(S(=O)(=O)c2cccc(F)c2)CC1 (stereo not given)	-5%	-3.1	/	-1	-1	-1.9	-4.4
COC(=O)c1csc2c(C(F)(F)F)cc(N3CCN(C(=O)Nc4ccccc4)CC3)nc12	-17%	3.7	-13	9	-6	-9.2	-0.9
O=C(NC1CCN(Cc2ccc(Cl)cc2)CC1)c1cn(-c2ccccc2)nc1-c1cccnc1	-6%	/	-24	8	/	2.6	3.4
CCCS(=O)(=O)N1CCCC(C(=O)Oc2ccc(OC)cc2)C1 (stereo not given)	/	-2.2	1	1	0	2.2	-2.2
COc1ccc([C@@H]2[C@@H]3C(=O)N(C(C)(C)C)C(=O)[C@@H]3[C@]3(C)C(=O)N(c4cccc(C)c4)C(=O)N23)cc1	/	?	0	9	-3	-2.9	1.3
CC(=O)c1ccc(NC(=O)Cn2nc(C)c([N+](=O)[O-])c2C)cc1	/	-2.4	-4	7	0	3.5	-3.1

From PubChem
